Screening data deposited in PubChem by several laboratories.
MT1-MMP promoter – MT1-MMP gene expression reporter suppression – cell-based, luciferase reporter, luminescence (AID 618). MT1-MMP promoter luciferase reporter cells, luminescence. calls from a first round at 10 µM; hits with a dose series show EC50 in µM. actives 0.62% (n = 87,000);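 active = over half of the reporter light lost at 10 µM or EC50 under 50 µM; inactive = the rest and hits that failed the dose series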;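 also: actives suppress MT1-MMP promoter-driven transcription so potencies describe inhibitors; HT1080 fibrosarcoma cells; overnight exposure; toxic or luciferase-blocking compounds were not removed from the actives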
Hsc70 – Hsc70 inhibitors, probe displacement, primary screen, biochemical, fluorescence polarization (AID 568); 83,000 tested, under 10 active; Hsc70 fluorescence polarization, probe displacement; higher % means a stronger effect; strong numbers were not always called active; displacement, % at 20 µM; hits with a dose series show IC50 in µM;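 active = displacement above 50% without optical interference and an IC50 on retest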;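 also: ATPase domain with a fluorescein-tagged ATP probe; 0% = vehicle and 100% = excess ADP; read after one hour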
WNV protease inh – blocks West Nile virus NS2B-NS3 protease activity; P06935; WNV NS2B-NS3 protease, fluorogenic substrate Ex360/Em465; active compounds read low; z-score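 (tested at a level between 10 and 100 µM)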; actives 0.18% (n = 65,000);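 active = z-score at -3 or under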;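 also: score is relative to mean and spread of the compound wells of a plate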
Target sequence (P06935 1371-1501 limits assumed): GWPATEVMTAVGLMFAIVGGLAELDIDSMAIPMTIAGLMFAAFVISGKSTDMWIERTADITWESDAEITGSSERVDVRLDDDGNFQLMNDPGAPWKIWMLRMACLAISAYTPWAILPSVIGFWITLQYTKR
Target sequence (P06935 1502-1679 limits assumed): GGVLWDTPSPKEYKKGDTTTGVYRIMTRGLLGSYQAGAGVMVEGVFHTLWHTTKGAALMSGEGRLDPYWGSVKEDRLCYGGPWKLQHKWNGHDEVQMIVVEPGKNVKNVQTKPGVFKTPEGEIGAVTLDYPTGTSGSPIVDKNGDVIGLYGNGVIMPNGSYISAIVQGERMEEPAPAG
* hit, by the source's call; i = inactive; nt = not tested or not shown. Compounds as they come; 0.87% or so of the library scored in one or more.

Sequence of screens – MT1-MMP promoter, Hsc70, WNV protease inh
COc1cc(C)c(Cl)c(C)c1S(=O)(=O)NCc1ccc2c(c1)OCO2
  i, 3.7%, -0.79
COc1ccc(OC)c(S(=O)(=O)N2C(C)CCCC2C)c1 (centres undefined)
  i, -2.6%, -0.46
COc1cccc(-c2noc(CCC(=O)Nc3cccnc3)n2)c1
  i, 3.4%, 0.42
COc1ccc(N2CCN(C(=O)c3ccc(-n4nc(C)cc4C)cc3)CC2)cc1
  i, -1.9%, 0.55
COC(=O)NC(=S)Nc1ccc(Oc2ccc(Cl)cc2)c(Cl)c1
  i, 2.3%, nt
CCOC(=O)Cn1cnc2c(nnn2-c2ccc(OC)cc2)c1=O
  i, 5.3%, 0.65
O=C(O)CSc1nnc(CNc2ccccc2Cl)n1-c1ccccc1
  i, -9.2%, -1.2
CCCCCn1nc(C)c2c(C)cc(=O)[nH]c21
  i, 1.3%, nt
CC(C)Cc1cc(C(=O)N2CCN(c3ccc(F)cc3)CC2)no1
  i, 4.8%, 1.1
CN1CCc2c(sc(NC(=O)c3ccc(S(=O)(=O)N4CCOCC4)cc3)c2C(N)=O)C1
  i, -9.8%, -0.29
CCc1cccc(NC(=O)C2CCCC2)c1
  i, -1.5%, 1.4
CC(C)(C)OC(=O)N1CCCC1C(=O)N1CCc2ccccc21 (centres undefined)
  i, -0.1%, -0.77
COc1ccc(-c2nn(-c3ccccc3)cc2CO)cc1OC
  i, 1.6%, -0.0075
O=C(COC(=O)c1cccnc1)Nc1ccccc1
  i, 1.7%, nt
Cc1ccc(Nc2nc(N3CCOCC3)nc(N3CCOCC3)n2)cc1
  i, -0.8%, -0.63

New compounds follow
Sequence of screens – MT1-MMP promoter, Hsc70, WNV protease inh
Cc1ccc(C2N(c3cccc(Cl)c3)C(=O)C3CCCN32)o1 (centres undefined)
  i, 1.6%, 0.51
O=C(Nc1nc(N2C(=O)c3ccccc3C2=O)n(-c2ccccc2)n1)c1ccc(Cl)cc1
  i, 5.9%, nt
CCN(CC(=O)Nc1ccccc1OC)C(=O)C1CC2C=CC1C2 (centres undefined)
  i, 1.3%, -7.5*
O=C1OCCC1Sc1nc2ccccc2n1-c1ccccc1 (centres undefined)
  i, -2.3%, -1
O=C(CN1CCN(Cc2ccc3c(c2)OCO3)CC1)N1CCc2[nH]c3ccc(F)cc3c2C1
  i, 9.5%, -0.45
CCCCNC(=O)C1C2C=CC3(CN(Cc4ccccc4Cl)C(=O)C13)O2 (centres undefined)
  i, 8.6%, -0.36
Cc1cc(C)n(CC(=O)N/N=C/c2ccco2)n1
  i, -2.2%, nt
CCc1cc2c(=O)[nH]cnc2s1
  i, -4.2%, -0.88
CCCn1c(=NC(=O)c2ccco2)c(C(=O)OCC)cc2c(=O)n3ccccc3nc21
  i, -4.4%, 2.5
O=c1cc(-c2ccccc2Cl)c2c([nH]1)CCC2
  i, -1.3%, 0.89
CC1(C)S[C@@H]2[C@H](NC(=O)Cc3ccccc3)C(=O)N2[C@H]1C(=O)O
  i, 2.0%, 0.56
COc1cccc(-c2csc(NC(=O)C3CC3)n2)c1
  i, 3.2%, -0.33
Cc1ccc2oc(=O)cc(CN3CCC(C)CC3)c2c1
  i, -0.7%, 0.03
O=C(C1CCN(Cc2cc(Cl)ccc2O)CC1)N1CCN(Cc2ccccc2)CC1
  i, -3.2%, 2
Cc1ccc(NC(=O)CCc2c(C)nc3ncnn3c2C)cc1
  i, -4.7%, -1.7

(cont.)
Sequence of screens – MT1-MMP promoter, Hsc70, WNV protease inh
Cc1c(N=C2NC(=O)C(CC(=O)Nc3ccc(Cl)cc3)S2)c(=O)n(-c2ccccc2)n1C (centres undefined)
  i, 6.7%, 1.2
COc1cccc(C2CC(C(F)(F)F)n3ncc(C(=O)NCC4CCCO4)c3N2)c1 (centres undefined)
  i, 1.0%, 0.79
COc1ccccc1-n1c(SCC(=O)N2CCCCC2)nc2cccnc21
  i, -9.3%, 0.14
O=C(CC(Nc1ccccc1)C(=O)O)c1ccccc1 (centres undefined)
  i, -5.4%, -1.1
Cc1c(N=Cc2nc3ccccc3n2C)c(=O)n(-c2ccccc2)n1C
  i, -4.1%, -0.86
CCOC(=O)CN1C(=O)C(=O)c2cccc(C)c21
  i, 2.0%, -0.15
Cc1ccc(-c2nnc(SCC(=O)N3CCN(c4ccccc4)CC3)o2)cc1
  i, 4.3%, 0.61
CC(C)Cc1ccc(S(=O)(=O)N2CCCC2)cc1
  i, -0.9%, nt
CC(O)C(NS(=O)(=O)c1ccc(Cl)cc1)C(=O)OCc1nnc(-c2ccccc2)o1 (centres undefined)
  i, -0.3%, nt
NNC(=O)c1cc2c(s1)CCCCCC2
  i, 1.6%, nt
CC(C)C(OC(=O)c1cccs1)C(=O)NCc1cccs1 (centres undefined)
  i, 10%, -0.58
CCOC(=O)c1ccc(NC(=O)CSc2nc3c(c(=O)n2-c2ccccc2OC)SCC3)cc1
  i, -0.8%, -1
COc1cccc(C2C(C(=O)Nc3ccc(C)cc3C)=C(C)Nc3ncnn32)c1OC (centres undefined)
  i, 2.8%, -0.04
Cn1nnnc1SCC(=O)NC1CCCCC1
  i, 4.0%, -0.09
Cc1ccc(OCc2ccc(C(=O)Nc3nccs3)o2)cc1
  i, -0.7%, 0.3

Brought forward from above: 3 entries; new compounds follow.
Sequence of screens – MT1-MMP promoter, Hsc70, WNV protease inh
COc1cccc(C2C(C(=O)Nc3ccc(C)cc3C)=C(C)Nc3ncnn32)c1OC (centres undefined)
  i, 2.8%, -0.04
Cn1nnnc1SCC(=O)NC1CCCCC1
  i, 4.0%, -0.09
Cc1ccc(OCc2ccc(C(=O)Nc3nccs3)o2)cc1
  i, -0.7%, 0.3
Cc1ccc(N2CC(C(=O)OCc3ccc([N+](=O)[O-])cc3)CC2=O)cc1 (centres undefined)
  i, -0.7%, nt
O=C(Nc1ccccc1-c1ccccc1)c1ccc(Br)o1
  i, -4.0%, nt
CSc1nncn1/N=C/c1ccccc1F
  i, 2.2%, nt
COC(=O)c1ccccc1NC(=O)c1ccc(Cn2cc(Cl)cn2)o1
  i, -2.1%, nt
CCOC(=O)N1CCC2(CC1)CC(=O)c1cc(O)ccc1O2
  i, 5.1%, -0.15
COc1ccc(NC(=O)c2cc(-c3ccccc3OC)on2)cc1
  i, 1.2%, 0.58
CCSc1nnc(NC(=O)c2ccc3ccccc3n2)s1
  i, -2.7%, nt
Cn1cnc2c1c(=O)n(Cc1ccc(F)cc1Cl)c(=O)n2C
  i, -5.4%, 0.47
O=C(Nc1cccc(-c2cnc3ccccc3n2)c1)c1cccc(NC(=O)c2ccco2)c1
  i, -18%, nt
CN(C)C(=O)NCc1ccc(S(N)(=O)=O)cc1
  i, 3.9%, 0.58
C=CCn1c(=O)n2ncnc2c2c3c(sc21)CCCC3
  i, 0.4%, nt
COc1cc(NC(=O)c2cccs2)ccc1NC(=O)c1ccco1
  i, -7.2%, 0.17
CCc1ccc(NC(=O)CSc2nnc(-c3cnccn3)n2Cc2ccco2)cc1
  i, -11%, 0.17
Cc1ccc(-c2nn3c(-c4ccco4)nnc3c3ccccc23)cc1S(=O)(=O)N1CCOCC1
  i, 1.9%, 1.3
CCS(=O)(=O)N1Cc2ccccc2CC1C(=O)Nc1ccc(NC(C)=O)cc1 (centres undefined)
  i, 3.4%, nt

Carrying on:
Sequence of screens – MT1-MMP promoter, Hsc70, WNV protease inh
COC(=O)CC1=C(C(=O)OC)C(c2ccc3c(c2Cl)OCO3)C(C#N)=C(N)O1 (centres undefined)
  i, -0.1%, -0.85
O=C(Cn1c(NCCO)nc2ccccc21)c1ccccc1
  i, -1.4%, -0.52
COCCNC(=O)C(C#N)c1nc2ccccc2nc1N1CCCCCC1 (centres undefined)
  i, 108%, 1.5
CSc1ccccc1NC(=O)c1ccncc1
  i, 4.4%, -0.34
c1cn(CCCNc2ncnc3nc[nH]c23)cn1
  i, 1.2%, -0.79
O=C(NCC1CCCO1)c1cccc(Br)c1 (centres undefined)
  i, 2.9%, -0.22
Nn1c(SCC(=O)N2CCCCC2)nnc1-c1ccncc1
  i, -5.7%, -0.78
CCc1ccc(C=NC23CN4CN(CN(C4)C2)C3)s1
  i, -2.9%, 0.71
c1ccc(-n2nnnc2-c2cnc(-c3ccncc3)nc2-c2cccs2)cc1
  i, 6.5%, nt
Cc1ccc(-c2cnc(-c3ccncc3)o2)cc1
  i, -2.4%, 1.3
O=c1cc(CN2CCN(c3ccccc3F)CC2)c2cc3c(cc2o1)CCCC3
  i, 1.7%, nt
Cc1ccc(NCc2nnc(SCC(=O)Nc3cc(C)on3)n2C)cc1
  i, -0.3%, nt
COc1ccc(CNc2nc3c(c(=O)n(Cc4ccc(F)cc4)c(=O)n3C)n2C)cc1
  i, -2.2%, -1.2
COC(=O)c1ccccc1NC(=O)N1CCN(S(=O)(=O)c2ccc(Cl)cc2)CC1
  i, -5.2%, 0.85
COc1cccc(-c2nn(C)c3sc(C(=O)NCc4ccccn4)cc23)c1
  i, 4.9%, 0.44

(continued)
Sequence of screens – MT1-MMP promoter, Hsc70, WNV protease inh
O=C1C(Cl)=C(N2CCCCC2)C(=O)N1c1ccccc1
  i, -4.7%, 1.1
COc1ccc(C2C(C(=O)N3CCOCC3)CCC(=O)N2c2cc(OC)c(OC)c(OC)c2)cc1 (centres undefined)
  i, -0.6%, nt
COc1ccc2cc(CN(CCc3ccccc3)Cc3nnnn3Cc3ccco3)c(=O)[nH]c2c1
  i, -0.2%, 1.4
CC(C)C(NS(=O)(=O)c1cccs1)C(=O)NCCN1CCN(c2ccccc2)CC1 (centres undefined)
  i, 1.4%, -0.46
CC1Cc2ccccc2N1C(=O)CSc1nc2ccccc2n1CC(=O)N1CCOCC1 (centres undefined)
  i, 2.6%, 0.39
COc1ccc(-c2ccc(SCC(=O)N3CCOCC3)nn2)cc1
  i, -3.2%, 0.82
CCn1nc(C(=O)OCc2c(C)noc2C)c2ccccc2c1=O
  i, -0.1%, 4
COC(=O)c1cc(=O)nc2sc(-c3cccs3)nn12
  i, -6.9%, -0.44
CCOC(=O)C1CCN(Cc2nc(-c3ccc(OC)c(OC)c3)no2)CC1
  i, 2.3%, -0.24
O=C(c1cccs1)c1ccc(-c2cccs2)s1
  i, -0.7%, -1.2
Cc1cc(C)cc(NC(=O)CSc2nnc(Cn3c(=O)sc4ccccc43)n2C)c1
  i, -2.2%, -0.25
CCc1ccc2[nH]c(=O)c(CN(Cc3ccccc3OC)Cc3nnnn3Cc3ccco3)cc2c1
  i, -18%, 0.38
CCCCCCn1c(SCC(C)C)nc2c1c(=O)[nH]c(=O)n2C
  i, -2.4%, 1.4
Cc1ccc(NC(=O)c2cc(-c3ccco3)on2)cc1
  i, -14%, -1.4
COC(=O)c1cc2ccsc2n1CC(=O)Nc1cc(C)cc(C)c1
  i, -12%, -0.07

Next section:
Sequence of screens – MT1-MMP promoter, Hsc70, WNV protease inh
Cc1ccccc1-n1c(SC/C(O)=C(\C#N)c2nc3ccccc3[nH]2)nnc1-c1ccncc1
  i, -13%, -0.38
O=C(CCC1(C(=O)O)CCC(=O)NC1)NCc1ccccc1 (centres undefined)
  i, -3.6%, -0.68
O=c1[nH]c(CN2CCN(c3ccccc3Cl)CC2)nc2ccsc12
  i, 7.1%, 0.95
Cc1ccnc(NC(=O)CCC(=O)N(CC(=O)NC(C)(C)C)C2CCCC2)c1
  i, 6.7%, 0.29
CCN1C(=O)CSc2ccc(C(=O)OC)cc21
  i, 4.8%, -0.06
O=C(NC(=S)NC1CC1)c1cccnc1
  i, -1.2%, nt
Cc1cccc(OCC(=O)Nc2cc(C)on2)c1
  i, 2.5%, nt
CCOc1cccc(-c2nnc(SCC(=O)Nc3cc(OC)cc(OC)c3)n2N)c1
  i, 2.4%, -0.13
COc1ccc2c(c1)c(C(=O)CN1CCN(C(=O)c3ccco3)CC1)c(C)n2C
  i, 1.0%, -1.3
COc1ccc(CCNC(=O)C2CCN(S(C)(=O)=O)CC2)cc1
  i, -1.9%, nt
Cc1noc(C)c1C(=O)Nc1ccc(Cl)cc1C(F)(F)F
  i, 4.9%, -0.73
CSC1CCCCC1(O)CSc1nc2ccccc2o1 (centres undefined)
  i, -62%, -1.1
CC(C)C(=O)N1CCc2cc(-c3csc(N)n3)ccc21
  i, -11%, -0.5
O=S(=O)(c1ccc(NCCc2c[nH]c3ccccc23)nc1)N1CCOCC1
  i, 8.2%, 0.18
O=C(CCC(=O)OCC(=O)c1ccc(Cl)cc1)NC1CCCCC1
  i, -1.2%, nt

Further records
Sequence of screens – MT1-MMP promoter, Hsc70, WNV protease inh
CCOc1ccccc1OCCCCN1CCCC1
  i, 2.1%, 0.71
CCC(=O)Nc1nnc(SCCOC)s1
  i, 5.1%, nt
CC(C)COC(=O)CCNc1n[nH]c(=O)[nH]c1=O
  i, -9.4%, 0.5
COc1ccccc1NC(=O)CSc1nncn1-c1cccnc1
  i, 2.6%, nt
Cc1cc(S(=O)(=O)Nc2ccc(F)cc2)c(C)s1
  i, 5.3%, nt
CCCC(CCC)C(=O)OC1C[C@H]2CC[C@@H](C1)[N+]2(C)C (some centres undefined)
  i, -7.7%, -2.9
O=C1C(=O)N(Cc2ccco2)C(c2cccc(Cl)c2)/C1=C(\O)c1ccc2c(c1)OCCO2 (centres undefined)
  i, -3.6%, -0.23
CCCCC(=O)Nc1cc2nn(-c3ccc(OC)cc3)nc2cc1C
  i, 3.5%, -1.9
O=C(NCCCN1CCOCC1)NC1CCCCC1
  i, 0.8%, nt
COc1ccc(CCn2c(SCC(=O)Nc3cc(C)on3)nc3ccccc3c2=O)cc1OC
  i, 1.9%, -0.58
COc1nc(-c2ccccc2)ccc1-c1noc(C)n1
  i, -2.9%, -1.6
